From PubChem
Bead autofluor = counter-screen for toxin protease inhibitors: compound fluorescence; compound autofluorescence counterscreen, microsphere flow cytometry; stronger effect = higher value; fluorescence intensity (concentration not given with the values); hit rate 3.1% among 360,000;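 active = at least 3 SD above the mean of all compounds, about 16000 in these data; inconclusive = too few beads counted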;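 note: 100 nL of 1 mM stock went into each well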
PrP 5UTR inh = inhibition of PrP 5' UTR reporter expression; cell-based PrP 5' UTR mRNA reporter, plate reader; inhibition, % (no concentration beside the values); hit rate 0.35% among 340,000; AID 488862, 2010;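 active = every replicate at 50% or more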;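 note: 0 = median of the neutral control wells; tested in H4 reporter cells; numbers are from one replicate; inactives centre near -14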
Mtb hypoxia inh = PubChem AID 1159583. M. tuberculosis hypoxia-regulated fluorescent reporter, fluorescence. fluorescence inhibition, % (test concentration not listed). hit rate 0.1% among 300,000;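 active = 35 to 45% if threefold the growth effect, above 45% if 1.5-fold the growth effect; inactive = the rest, general growth blockers included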;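 note: wells of about 50 µL received 100 nL stock; 0% = vehicle wells and 100% = reference inhibitor wells; whole bacteria with a GFP reporter of the hypoxia response; strong numbers were not always called active; many hits fall short of the cut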
Sa ugtP lethal = growth inhibition of ugtP-null S. aureus, primary screen, RN4220 ugtP deletion, OD600; 16 h; some inactives read as strong as hits; growth inhibition, % (concentration not given with the values); hit rate 0.54% among 330,000;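 active = z-score under -3 and OD600 up to 0.15 on both plates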;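 note: plate controls were untreated wells for no effect and antibiotic for full effect; wells of about 80 µL received 100 nL stock; the first replicate is given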
BJeLR lethal = MLPCN primary cell-based screen for lethality selective to Ras in HRASV12 cells; BJeLR (HRASV12) viability, CellTiter-Glo ATP luminescence, 48 h; reference of the scale not given here; inhibition, % (no concentration beside the values); hit rate 0.17% among 300,000;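 active = replicate mean above 50%; inconclusive = above 50% but judged a plate artefact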;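 note: 50 nL library stock added to about 25 µL; numbers are from one replicate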
RN4220 kill = growth inhibition of S. aureus RN4220, primary screen, OD600. 16 h. inhibition, % (test concentration not listed). AID 1259311, 2017. hit rate 0.33% among 330,000;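 active = z-score of -3 or lower and OD600 up to 0.18 on both plates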;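 note: plate controls were untreated cells for no effect and reference antibiotic for full effect; stock transfer was 100 nL into about 80 µL; one replicate is shown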
Mtb hypoxia inh growth = further read-out of Mtb hypoxia inh, marked with its call; growth inhibition, %; measured here: M. tuberculosis growth (absorbance);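 0% = vehicle and 100% = reference antibiotic; read after six days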
Numbers without * were called inactive; ? = inconclusive; . = no result given.

SMILES	Bead autofluor	PrP 5UTR inh	Mtb hypoxia inh	Mtb hypoxia inh growth	Sa ugtP lethal	BJeLR lethal	RN4220 kill
CCCOc1ccc(C2C(C(=O)c3ccc(C)o3)=C(O)C(=O)N2Cc2cccnc2)cc1 (configuration not stated)	.	.	4	5	4	8	3.7
C=CCN(c1ccccc1Cl)S(=O)(=O)c1cccc(C(=O)NCCc2ccc(OC)cc2)c1	1929	5	0	0	20	-2	-0.7
CC(C)CN(C(=O)Cn1c(Cl)nc2c1c(=O)n(C)c(=O)n2C)C1CCS(=O)(=O)C1 (configuration not stated)	5735	-26	7	4	4	0	1.8
Clc1cccc(CSc2nnc(-c3ccccn3)n2Cc2ccco2)c1	10008	9	5	6	-10	-4	6.1
Cc1c(/C(O)=C2/C(=O)C(=O)N(CCN3CCOCC3)C2c2cccs2)cnn1-c1ccccc1 (configuration not stated)	2436	-3	.	.	-1	2	4.0
CC(C)NC(=O)CN(CCc1ccccc1)S(C)(=O)=O	10013	-19	2	13	-1	-4	2.4
CCOc1ccc(NC(=O)CCCCCN2C(=O)[C@@H]3Cc4ccccc4CN3C2=O)cc1	5412	-15	-5	-4	8	6	0.6
O=C(c1cccc(Cl)c1)N(Cc1ccco1)C1CCS(=O)(=O)C1 (configuration not stated)	6142	-4	1	6	1	12	-0.5
COc1ccc(-c2cc(-c3nnc(-c4ccncc4)o3)c3ccccc3n2)cc1	2024	-14	6	-3	-8	-2	-4.4
COc1ccc(-c2cccc(C(=O)NCC(=O)O)c2)cc1	10665	.	-11	-16	8	11	2.2
CC1CN(c2ccc([N+](=O)[O-])c(NCCOc3ccccc3)c2)CC(C)N1 (configuration not stated)	3668	-9	9	-5	-12	9	-10
O=C(Nc1ccc(C2=CN(Cc3ccccc3)CCC2=O)cc1)OCc1ccccc1	3848	-12	6	4	11	.	11
CCOc1ccc(NC(=O)CSc2nnnn2CC(=O)O)cc1	3586	0	8	1	2	1	-11
COc1ccc(C(C)(C)C)cc1NC(=O)c1ccc[n+]([O-])c1	3518	-32	7	1	3	6	6.2
O=C(CCN1C(=O)/C(=C/c2ccccc2Cl)SC1=S)Nc1cccnc1	5556	-20	5	3	4	-8	-0.9
COc1ccc2ccccc2c1CN1CCN(C(=O)c2ccccc2)CC1	2848	-10	.	.	-6	.	-2.1
CC1(C)CC(NC(=O)COc2ccc3ccc(=O)oc3c2)CC(C)(C)N1	5199	-89	5	-7	9	4	0.6
COc1ccc(NC(=O)NCc2ccccn2)cc1	4269	-18	.	.	2	-2	-1.5
CCN(CC)CCCNc1oc(-c2ccccc2[N+](=O)[O-])nc1C#N	6000	-12	3	-2	12	3	3.7
Cc1cccc(N2CCN(C(=O)CN3C(=O)NC(C)(C4CC4)C3=O)CC2)c1C (configuration not stated)	4640	-15	1	-8	1	.	2.6
CN(C)C(=NS(=O)(=O)c1ccccc1)c1ccccc1	.	.	-1	6	2	.	4.8
COc1cccc(CNC(=O)c2ccc(CS(=O)(=O)Cc3ccc(C)cc3)o2)c1	4102	-10	4	-3	2	-7	9.6
CC1CCCN(c2ccc(C(=O)Nc3cccnc3)cc2[N+](=O)[O-])C1 (configuration not stated)	4276	-48	7	11	-1	9	4.9
Cc1sc(NC(=O)CCS(=O)(=O)c2ccccc2)c(C#N)c1C	5398	-26	9	8	12	1	11
CCOC(=O)C(=O)c1csc(NC(=O)CCSc2ccc(C)cc2)n1	4447	-31	7	4	5	2	4.9

A different layout for 5 compounds above:
The line under a structure holds: Bead autofluor | PrP 5UTR inh | Mtb hypoxia inh | Mtb hypoxia inh growth | Sa ugtP lethal | BJeLR lethal | RN4220 kill
CCN(CC)CCCNc1oc(-c2ccccc2[N+](=O)[O-])nc1C#N
  6000 | -12 | 3 | -2 | 12 | 3 | 3.7
C=CCN(c1ccccc1Cl)S(=O)(=O)c1cccc(C(=O)NCCc2ccc(OC)cc2)c1
  1929 | 5 | 0 | 0 | 20 | -2 | -0.7
COc1ccc2ccccc2c1CN1CCN(C(=O)c2ccccc2)CC1
  2848 | -10 | . | . | -6 | . | -2.1
Cc1cccc(N2CCN(C(=O)CN3C(=O)NC(C)(C4CC4)C3=O)CC2)c1C (configuration not stated)
  4640 | -15 | 1 | -8 | 1 | . | 2.6
CC1CCCN(c2ccc(C(=O)Nc3cccnc3)cc2[N+](=O)[O-])C1 (configuration not stated)
  4276 | -48 | 7 | 11 | -1 | 9 | 4.9

Further compounds follow.
SMILES	Bead autofluor	PrP 5UTR inh	Mtb hypoxia inh	Mtb hypoxia inh growth	Sa ugtP lethal	BJeLR lethal	RN4220 kill
Cc1ccc(N)c(N)c1	5668	-86	11	13	6	.	1.7
O=C(CCS(=O)(=O)c1ccc(Br)cc1)NCCC1=CCCCC1	5104	-19	-11	-12	3	-2	0.8
O=C(Cn1c(=O)oc2ccccc21)Nc1ccc2c(c1)OCCO2	6937	-3	-6	5	9	-15	7.5
O=C(OCC(=O)c1ccc[nH]1)c1ccccc1	4435	-25	2	4	8	4	3.6
COCCNC(=S)NN=C1CCC(c2ccccc2)CC1 (configuration not stated)	4188	-26	-7	-4	5	-3	8.5
O=c1c2ccccc2c2ccccc2c(=O)n1CC1CCCO1 (configuration not stated)	5300	-3	.	.	5	-6	0.3
O=C(CN1CCOCC1)N1CCc2ccccc2C(c2ccccc2)C1 (configuration not stated)	2488	-8	4	3	-4	-7	-9.1
CNC(=O)c1sc(N2N=C3/C(=C\c4ccccc4)CCCC3C2c2ccccc2)nc1C (configuration not stated)	2791	-23	2	8	4	.	3.9
COc1ccc(S(=O)(=O)N(CC(=O)N2CCN(C)CC2)c2ccccc2)cc1OC	3135	-16	.	.	7	3	2.2
COc1ccc(C(C(=O)NCC2CCCO2)N(C(=O)CNC(=O)c2cccs2)c2ccc(C)cc2)cc1OC (configuration not stated)	2701	-28	8	7	5	-5	6.6
O=C(Cc1ccc(NC(=O)C2CCCN(C(=O)C3CCCC3)C2)cc1)Nc1cccc(C(=O)N2CCCCC2)c1 (configuration not stated)	3879	-21	-1	4	5	.	2.8
COc1ccc(CNC(=O)CN2C(=O)NC(c3ccccc3)(c3ccccc3)C2=O)cc1OC	5250	-6	6	10	-1	.	-0.6
Cc1ccc(C)c(CSc2nnc([C@@H]3CCCN3)o2)c1	5561	-1	16	5	6	-3	2.5
O=P(O)(O)COc1ccccc1O	10465	-19	0	-2	0	-10	5.0
CCOCCn1c(CN(Cc2ccccc2)Cc2ccccc2)nc2c1c(=O)n(C)c(=O)n2C	5742	-7	-1	7	-19	9	0.5
O=C(CCn1cnc2ncccc2c1=O)N1CCN(c2cccc(Cl)c2)CC1	5153	-14	2	2	4	-13	2.7
O=C(NCc1ccc(F)cc1)C(c1ccccc1)c1ccccc1	.	-37	20	1	10	-2	-1.9
CCc1ccc(/C(C)=N/NC(=O)CNC(=O)/C=C/c2ccccc2OC)cc1	3084	-12	.	.	.	-10	.
CN(c1ccccc1)S(=O)(=O)c1cccc(NC(=O)COC(=O)C2CCCCC2)c1	3619	-11	-2	10	-9	-10	-0.8
S=C(NCCN1CCCCC1)Nc1ccc(Br)cc1	2906	-4	3	-2	4	-2	-0.5
CN1CCN(c2nc3c(c(=O)[nH]c(=O)n3C)n2CCSc2nc3ccccc3s2)CC1	5133	-25	-4	10	4	-8	9.5
O=C(Nc1ccccc1)c1ccsc1	2047	-34	7	-6	0	10	1.2
CCNc1nc(NCC)nc(N(C)/N=C/c2ccco2)n1	3591	-17	.	.	.	-9	.
CC1CCN(Cc2c(C(=O)O)nnn2-c2nonc2N)CC1	3458	-13	19	0	8	12	11
CC1(C)CC(=O)C=C(C(=O)N2CCCC(C(=O)c3cccc(Cl)c3)C2)O1 (configuration not stated)	4535	-16	4	5	4	0	12

By substructure: the entries above with two or more sulfur atoms
SMILES	Bead autofluor	PrP 5UTR inh	Mtb hypoxia inh	Mtb hypoxia inh growth	Sa ugtP lethal	BJeLR lethal	RN4220 kill
O=C(CCN1C(=O)/C(=C/c2ccccc2Cl)SC1=S)Nc1cccnc1	5556	-20	5	3	4	-8	-0.9
Cc1sc(NC(=O)CCS(=O)(=O)c2ccccc2)c(C#N)c1C	5398	-26	9	8	12	1	11
CCOC(=O)C(=O)c1csc(NC(=O)CCSc2ccc(C)cc2)n1	4447	-31	7	4	5	2	4.9
CN1CCN(c2nc3c(c(=O)[nH]c(=O)n3C)n2CCSc2nc3ccccc3s2)CC1	5133	-25	-4	10	4	-8	9.5

Already shown: entries from further up.
SMILES	Bead autofluor	PrP 5UTR inh	Mtb hypoxia inh	Mtb hypoxia inh growth	Sa ugtP lethal	BJeLR lethal	RN4220 kill
CCNc1nc(NCC)nc(N(C)/N=C/c2ccco2)n1	3591	-17	.	.	.	-9	.
CC1CCN(Cc2c(C(=O)O)nnn2-c2nonc2N)CC1	3458	-13	19	0	8	12	11

Next part:
SMILES	Bead autofluor	PrP 5UTR inh	Mtb hypoxia inh	Mtb hypoxia inh growth	Sa ugtP lethal	BJeLR lethal	RN4220 kill
CC(C)[n+]1ccn(C2=C([O-])c3ccccc3C(=O)/C2=N\S(=O)(=O)c2ccccc2)c1	.	-33	-5	3	5	1	4.1
C/C(=N\NC(=O)c1cccnc1)c1ccccc1	3276	-16	.	.	.	4	.
O=C(c1ccccc1F)N1CCCc2ccccc21	3543	-16	17	-2	7	8	0.8
Cc1ccccc1S(=O)(=O)c1cc2ccccc2nc1N	4052	-2	-15	2	1	5	2.1
CCCC(=O)Nc1ccc(NC(=O)C2CC2)cn1	4711	-21	.	.	.	-1	.
Cc1nn(-c2ccc(F)cc2)c(Cl)c1/C=C/C(=O)OCC(=O)Nc1c(F)c(F)c(F)c(F)c1F	2533	-20	-7	-4	2	1	6.3
COc1ccc(OC)c(C2=NO[C@@H]3C(=O)N(c4cc(Cl)ccc4OC)C(=O)[C@H]23)c1	4541	-22	19	8	4	1	2.3
O=C(Nc1nnc(C2CC2)s1)C1Cc2ccccc2CN1S(=O)(=O)c1cccs1 (configuration not stated)	4877	-11	.	.	-22	7	1.9
O=C(CCNS(=O)(=O)c1ccc(Br)cc1)NC1CCN(Cc2ccccc2)CC1	?	3	4	4	0	12	2.2
N#CC(c1ccc(Cl)cc1)c1ccc(Cl)nn1 (configuration not stated)	2857	-20	-3	-3	7	0	-1.9
COc1ccc(S(=O)(=O)N(C)C)cc1NC(=O)Cc1c[nH]c2ccccc12	3378	-4	5	19	1	-1	6.3
CCOc1ccc2nc(SCCNS(=O)(=O)c3ccccc3)sc2c1	2501	-22	3	3	25	2	-2.7
CCOC(=O)C1=C(C)N(C)C(C)=C(C(=O)OCC)C1c1cccnc1	3231	-14	.	.	0	19	3.0
O=C(NNC(=S)Nc1ccc(Cl)c(Cl)c1)c1cccc([N+](=O)[O-])c1	4315	.	-2	2	15	-6	-7.0
CCCSc1ccc([C@@H]2[C@H]3C(=O)N(CC)C(=O)[C@H]3[C@]3(C(=O)OC)CCCCN23)cc1	22612*	0	.	.	.	5	.
COCCNC(=O)C(C)N(c1ccc(Oc2ccccc2)cc1)S(C)(=O)=O (configuration not stated)	3024	-19	8	4	-3	-11	3.1
COc1ccc(C2C=C(c3ccc(Br)cc3)Nc3nc(N4C(=O)CCC4=O)nn32)cc1 (configuration not stated)	8316	-7	-7	-2	-6	-11	-1.8
